CtBP-E1A blk – inhibitors of CtBP/E1A interaction; AlphaScreen GST-E1A/His-CtBP binding, 1536-well; stronger effect = lower value; control for the full effect not named in the record; activity change, % (concentration not given with the values); 340,000 compounds, 0.49% hits; in the data active means activity change below about -65%; inconclusive means about -30% to -65%; inactive means above about -30%; note: % is set by controls: 0 for no effect and ±100 for the full control effect
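In 5 uL wells, 23 nL compound meets equimolar GST-E1A and His-CtBP (5X stock 125 nM each) for 2 h, 37 °C. Beads (5X, 50 ug/mL) then 1 h, 37 °C, dark.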
D2 ag – agonists of human D2 dopamine receptor (beta-arrestin). AID 624465. activation, % (concentration not given with the values). P14416. DiscoveRx PathHunter D2 beta-arrestin, luminescence, 90 min; 100% = 57 uM dopamine signal. 360,000 compounds, 0.084% hits; in the data active = activation above about 40%; inconclusive = about 15% to 40%; inactive = below about 15%; note: the text of the record calls up to 30% inactive
Target sequence (P14416 whole entry, looked up): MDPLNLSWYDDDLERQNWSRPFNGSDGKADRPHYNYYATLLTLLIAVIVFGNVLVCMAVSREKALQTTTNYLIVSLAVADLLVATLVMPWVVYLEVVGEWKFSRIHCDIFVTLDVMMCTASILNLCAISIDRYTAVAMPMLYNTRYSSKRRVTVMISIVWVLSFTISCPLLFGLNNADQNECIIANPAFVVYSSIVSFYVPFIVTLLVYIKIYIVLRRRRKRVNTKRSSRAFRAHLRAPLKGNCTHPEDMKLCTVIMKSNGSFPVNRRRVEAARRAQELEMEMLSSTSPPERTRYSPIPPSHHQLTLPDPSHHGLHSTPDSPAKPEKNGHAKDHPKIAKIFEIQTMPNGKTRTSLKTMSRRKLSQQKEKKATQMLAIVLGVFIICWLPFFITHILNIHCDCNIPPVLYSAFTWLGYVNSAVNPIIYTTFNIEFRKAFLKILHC
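Agonist mode: compounds alone added to overnight-plated D2 PathHunter cells for 90 min at 37 C, with 57 uM final dopamine (EC100) defining full response. Beta-arrestin recruitment detected by chemiluminescent reagent, read after 1 h at ambient temperature.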
Sfp PPTase inh – Sfp phosphopantetheinyl transferase inhibition; 310,000 compounds, 3.5% hits; Biochemical Sfp PPTase activity, qHTS; Potency, µM, for inactives: max response, negative = inhibition, actives largely listed as inhibitors; active = well fitted inhibition curve with a large enough effect; inconclusive = small, poorly fitted or top-dose-only effect, or another doubt; inactive = no such curve, though single readings can be large or run the other way;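 note: the enzyme is Sfp with the accession as filed and its product quenches rhodamine fluorescence; potency is the fitted concentration of half-maximal effect; 0% = enzyme reaction without inhibitor and -100% = no enzyme wells; top concentration of the series not given in the record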
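Compounds were incubated with enzyme (final 15 nM) for 15 min at room temperature before substrate addition started the reaction. Fluorescence at 525 nm excitation, 598 nm emission was recorded immediately and after 30 minutes.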
D2 PAM – positive allosteric modulators of human D2 dopamine receptor; AID 624464; 360,000 compounds, 0.23% hits; DiscoveRx D2 beta-arrestin cells, luminescence, 90 min; 100% = 57 uM dopamine signal; potentiation, % (concentration not given with the values); P14416; active = potentiation of 50% or more; inconclusive = 30% to 50%; inactive = 30% or less;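 note: tested on top of an EC20 dose of dopamine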
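PathHunter beta-arrestin assay in DiscoveRx D2 cells. Compounds were added with an EC20 of dopamine (50 nM final) for 90 min at 37 deg C. Luminescence was read 1 h after detection reagent, with 57 uM dopamine as the EC100 control.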
Six1-Eya2 blk – inhibitors of human Six1/Eya2 interaction; Q15475+O00167; AlphaScreen GST-Six1/His-Eya2 binding, biochemical; stronger effect = lower value; control for the full effect not named in the record; activity change, % (test concentration not listed); 360,000 compounds, 0.56% hits; AID 651725; in the data active = activity change below about -65%; inconclusive = about -30% to -65%; inactive = above about -30%; note: % is set by controls: 0 for no effect and ±100 for the full control effect
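AlphaScreen luminescence read after one hour at 37 °C in darkness. Pin-transferred compounds met GST-Six1 and His-Eya2 protein (5X stock 250 nM/500 nM) plus glutathione donor and Ni-chelate acceptor beads (5X, 50 ug/mL).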
PINK1 modulator – changes PINK1 expression. PINK1 immunofluorescence, high-content cytometry, 24 h. Potency, µM (titrated, usually from 76.6 µM), inactives show at the highest dose activation (PINK1 increase), usual class: activators. 410,000 compounds, 0.2% hits; active = well fitted activation curve with a large enough effect; inconclusive = small, poorly fitted or top-dose-only effect; inactive = flat fitted curve, though single readings scatter; cell line not stated here;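 note: potency is the fitted concentration of half-maximal effect; % of control where 0% means no effect; nearly all actives have a fitted effect of over 65% in size; a mitochondrial uncoupler was the plate control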
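Compound titrations (5 concentrations, 24 h) on a stable cell line; DMSO and CCCP controls. Endpoint: fixed-cell PINK1 immunofluorescence with mitochondrial, cell and nuclear markers, scanned by microplate cytometer.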
TRPV1 PAM – human TRPV1 potentiation. TRPV1-expressing cells, Fluo-8 calcium influx, capsaicin EC20 potentiation; host cell line not named in the record; control for the full effect not named in the record. potentiation, % at 8.33 µM. 320,000 compounds, 0.02% hits; active means potentiation above 80%; inconclusive means 30% to 80%; inactive means below 30%; note: 0% is about no effect
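Fluo-8 calcium influx in TRPV1-expressing cells, kinetic read (ex 480/em 520 nm). Compound added and read 3 min for agonist activity, followed by capsaicin at EC20 final and 2 min further read for enhancement.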
The depositor's hits bear a star; ? = inconclusive; . = no result given; & = joins results of further samples; [ ] = another dose, or the depositor's remark.

molecule	CtBP-E1A blk	PINK1 modulator	Six1-Eya2 blk	D2 ag	TRPV1 PAM	Sfp PPTase inh	D2 PAM
COc1ccc(CCNC(=O)CN2C(=O)COc3ccc(S(=O)(=O)N4CCOCC4)cc32)cc1OC	6	0.9%	5	-3.1	22	8%	-5
O=C(O)c1ccc(NC2=C(Cl)C(=O)c3ccccc3C2=O)cc1	-21	-0.8%	4	3.4	4	22µM*	-23
CN(C(=S)SCc1ccccc1)C1CCS(=O)(=O)C1 (stereo not given)	5	-0.4%	5	3.7	-15	11%	1
COc1ccc(CCNC(=O)c2cc(=O)c3ccc(C)cc3o2)cc1OC	-7	2.4%&3.1%	4	1.6	-12	8%	-1
OC(CNCC1(N2CCCCC2)CCCCC1)COc1ccc(Cl)cc1Cl (stereo not given)	-6	-1.1%	3	-4.6	-2	-5%	-13
Cc1ccccc1-n1c(C)cc(/C=N/Nc2ccc([N+](=O)[O-])cn2)c1C	-6	3.9%	-9	-0.8	-11	8%	-11
O=C(c1ccccc1Sc1c(Cl)cccc1[N+](=O)[O-])N1CCOCC1	-1	0.3%	5	-3.2	-1	-4%	-15
COc1ccc(N2CCN(S(=O)(=O)c3ccc(OC)cc3)CC2)cc1	7	1.9%[38.3 µM]	-9	4.6	0	4%	1
COc1cc(/C=C2/NC(=O)N(Cc3ccccc3F)C2=O)ccc1O	.	2.1%	-1	13	-6	12%	5
CC(C)NC(=O)CSc1nnc(-c2ccc(C(C)(C)C)cc2)n1C	-4	.	-3	-2.4	0	34%[activator]	-12
COc1cccc(OCCCOc2ccccc2C(C)C)c1	6	.	82	-0.8	6	6%	-13
Cc1ccc2[nH]c(C(=O)NN=C3CCCCC3)c(-c3ccccc3)c2c1	5	3.6%	2	-4.4	-1	-9%	-13
O=C(CNC(=O)c1ccco1)NCC(=O)OCc1ccc(Cl)cc1Cl	-5	-0.1%	-1	-2.6	20	8%	-2
Cc1ccc2[nH]c(O)c(N=Nc3nc4ccccc4s3)c2c1	-2	13%	1	-5.0	-6	2%	-10
COc1ccccc1-c1sc2ccccc2c1-c1ccc2c(c1)OCCO2	8	4.7%	6	-6.4	9	.	-4
O=C(O)c1ccccc1C(=O)NCc1ccccc1	2	0.1%	4	-0.5	14	-4%	1
Cn1c(O)c(N=NC(=O)Cc2c[nH]c3ccccc23)c2ccccc21	-3	0.3%	-10	1.6	.	.	-2
O=C1C(Cl)=C(NCc2ccco2)C(=O)c2ccccc21	?	-5.1%	?	5.1	.	.	6
COc1ccc(S(=O)(=O)N2CCN(C(=O)[C@H](Cc3ccccc3)NC(=O)c3ccco3)CC2)cc1	4	6.4%	1	-1.8	-5	.	-10
COC(=O)C1CN(Cc2ccccc2)C(=O)C1=O (stereo not given)	0	1.9%	7	0.7	.	.	0
COc1ccc(N2C(=O)CC(N(CCc3ccccc3)C(=O)/C=C/C(=O)O)C2=O)cc1 (stereo not given)	4	0.5%	4	0.8	-1	10%	-2
CC(=O)N(Cc1cc(=O)[nH]c2ccccc12)c1ccc(C)cc1	12	-1.4%	2	-1.9	8	-7%	24
CCN(CC)S(=O)(=O)c1ccc(O)c(C(=O)OCC(=O)Nc2ccc(OC(F)(F)F)cc2)c1	-5	?	-6	-2.3	-5	11%	-7
CCC(=O)NC1=C(Cl)C(=O)C(NC(=O)CC)=C(Cl)C1=O	.	-0.1%	-24	42*	6	0.56µM*	-60
COC(/C=C/Nc1ccc(Br)cc1)=C(C#N)C#N	10	.	0	-0.4	-1	18%	-2
COc1ccc(C2=NN(C(C)=O)C(c3cccs3)C2)cc1OC (stereo not given)	4	4.7%	1	0.5	-1	11%	2
Cc1cccn2cc(CCNS(=O)(=O)c3cccc([N+](=O)[O-])c3)nc12	3	-0.3%	8	-0.1	-1	16%	0
Cc1ccccc1-n1c(C)nnc1SCC(=O)NNC(=O)c1ccccc1	-4	0.6%	2	-0.7	17	-1%	-5
CCn1c(SCC(=O)O)nnc1-c1ccccc1	12	0.7%	2	-1.9	-17	0%	-13
O=C(Cc1c(F)cccc1Cl)Nc1cccc(S(=O)(=O)NC2=NCCCCC2)c1	3	-3.0%	1	-1.1	-5	.	-25
O=C(c1ccc(CS(=O)c2ccccc2Cl)o1)N1CCN(C2CCCCC2)CC1 (stereo not given)	-3	11%	-12	-1.7	.	.	-24
Cc1nn(-c2ccccc2)c(Cl)c1/C=N/NC(=O)c1ccn[nH]1	.	-1.7%	-7	-0.5	13	10%	-3
NC(=O)CSc1nnc(-c2ccc(S(=O)(=O)N3CCCCC3)cc2)n1-c1ccccc1	6	-0.4%[38.3 µM]	1	2.6	10	0%	11
CC(C)(C)NC(=O)C(c1ccncc1)N(Cc1ccc(F)cc1)C(=O)c1ccc(-c2ccccc2)[nH]1 (stereo not given)	-6	0.2%	-12	0.2	2	9%	-11
CCOc1cc(C(=O)NCC(C)(C)CNC(=O)c2cc(OCC)c(OCC)c(OCC)c2)cc(OCC)c1OCC	.	3.7%	0	-2.8	.	.	-17
C/C(=N\N(Cc1ccccc1)c1ccccc1)c1ccncc1	0	7.2%	5	-1.6	3	1%	-5
CCOc1ccc2[nH]c(=O)c(CN(CCO)C(=O)c3ccc(F)cc3)cc2c1	11	-2.0%	-1	-1.5	3	7%	16
CCN(CC(=O)Nc1c(C(=O)OC)[nH]c2ccc(Cl)cc12)c1ccc2c(c1)OCO2	-21	-0.7%	?	-6.0	-6	-18%	1
COc1ccc(Nc2cc(C(=O)NCCCN3CCOCC3)c3ccccc3n2)cc1	-6	-1.2%	-4	-2.2	?	5%	-14
CCOC(=O)c1cc(OCC(=O)NC(C)C(C)C)cc(C(=O)OCC)c1 (stereo not given)	0	-0.8%	18	-2.1	-21	9%	-20
CCOc1cc(N2CCOCC2)c(OCC)cc1NC(=O)COC(=O)c1c(C)noc1C	4	0.1%	3	-2.4	.	.	-4
COC(=O)c1ccccc1NC(=O)NCc1ccccc1	.	0.0%	6	-5.1	3	18%	-11
COc1ccc(S(=O)(=O)N2CCC(C(=O)NC3CCCCC3)CC2)cc1OC	15	8.7%	-2	-5.5	-10	.	-3
COc1cc(OC)cc(-c2cc3ncccc3cn2)c1	0	1.2%	-1	0.4	0	.	-6
COc1ccc2nc(N3CCN(C(=O)c4ccc([N+](=O)[O-])o4)CC3)sc2c1	-14	10.0%	-5	9.1	-8	.	5
CC(C(=O)Nc1sc2c(c1C#N)CCCCC2)N1C(=O)c2ccccc2C1=O (stereo not given)	14	-0.9%	-1	1.5	-5	?	-6
COc1ccccc1NC(=O)COC(=O)c1ccc(S(=O)(=O)N2CCCCCC2)cc1	0	-0.5%	10	-1.5	.	.	-19
Cn1nnnc1SCC1=C(C(=O)O)N2C(=O)[C@@H](NC(=O)[C@H](O)c3ccccc3)[C@H]2SC1	-22	1.7%	1	-5.2	10	?	-9
COC(=O)C(C)Sc1nnc2n(-c3cccc(C)c3)c(=O)c3c4c(sc3n12)CCCC4 (stereo not given)	-5	-0.2%	15	-2.4	-19	-9%	-28
COc1ccc(NC(=O)c2cc(C)no2)cc1	7	1.4%	8	-9.0	-5	11%	-5
CCOC(=O)CCCCC(=O)c1[nH]c(=O)[nH]c1CSc1nc(C)cc(=O)[nH]1	0	0.1%[38.3 µM]	0	-0.9	2	7%	0
COc1ccccc1OCC(=O)Nc1nc(C)c(C)s1	-2	0.7%	1	-2.3	-3	7%	0
CCOC(=O)CC1(C)NC(C(=O)O)C(C)(C)S1 (stereo not given)	?	-1.6%	-9	-4.3	.	.	-11
COc1ccc(S(=O)(=O)N(C)CC(=O)N2CCCCCC2)cc1	-2	-2.0%	1	-1.9	2	-1%	-5
CCNc1nc(NC(C)(C)C)nc(SCC(N)=O)n1	3	1.3%	8	1.7	?	4%	-3
CSCCC(N=C(NS(=O)(=O)c1ccc(Br)cc1)c1ccccc1)C(=O)O (stereo not given)	6	-2.6%	8	1.1	-4	26%	-2

(next part)
molecule	CtBP-E1A blk	PINK1 modulator	Six1-Eya2 blk	D2 ag	TRPV1 PAM	Sfp PPTase inh	D2 PAM
O=C(O)c1cccc(S(=O)(=O)N2CCCC2)c1	-7	-0.7%[38.3 µM]	2	3.2	4	10%	-6
CCOc1ccc(S(=O)(=O)NCCC(=O)Nc2cccc(C(=O)OC)c2)cc1	1	0.8%	0	3.8	-6	7%	-3
O=C(NN=Cc1c(O)ccc2ccccc12)c1ccncc1	?	-2.4%	-89*	1.5	.	.	-9
CCOc1ccc2c(c1)C(C)=CC(C)(C)N2	2	0.0%&-1.5%	1	12	-10	?	-14
Cc1cccc(N(C(=O)Cn2nnc3ccccc32)C(C(=O)NCc2ccco2)c2ccncc2)c1 (stereo not given)	0	-1.5%	3	-1.6	-3	-2%	-13
c1ccc(CNc2ncnc3[nH]ncc23)cc1	6	-1.9%&-4.8%	0	-1.3	.	.	-3
Cc1ccc(/C=N/NC(=O)CNC(=O)COc2ccccc2)o1	2	1.0%	7	-0.7	1	-1%	-9
C[C@@H](C(=O)Nc1ccccc1N1CCOCC1)N1C(=O)C2CC=CCC2C1=O (stereo not given in full)	5	0.2%	4	0.2	0	10%	-2

Overlap with the part before: 3 entries, followed by the next part.
molecule	CtBP-E1A blk	PINK1 modulator	Six1-Eya2 blk	D2 ag	TRPV1 PAM	Sfp PPTase inh	D2 PAM
c1ccc(CNc2ncnc3[nH]ncc23)cc1	6	-1.9%&-4.8%	0	-1.3	.	.	-3
Cc1ccc(/C=N/NC(=O)CNC(=O)COc2ccccc2)o1	2	1.0%	7	-0.7	1	-1%	-9
C[C@@H](C(=O)Nc1ccccc1N1CCOCC1)N1C(=O)C2CC=CCC2C1=O (stereo not given in full)	5	0.2%	4	0.2	0	10%	-2
CC(=O)c1cc(NC(=O)c2ccc(Cl)cc2)c(=O)oc1/C=C/N(C)C	-8	3.1%	-2	-2.3	-16	56µM*	-20
CC(=O)N(Cc1ccco1)c1nc(C(=O)Nc2ccc(Cl)cc2)c(C)s1	1	-0.7%	-2	-3.5	-10	20µM*	6
CC(=C/C(=O)O)/C=C/c1cccs1	2	-0.7%	0	-1.4	0	18%	-7
Cc1noc(C(=O)Nc2cccc(Cl)c2)c1Cl	0	0.5%	1	-3.7	-10	-3%	-11

Compounds as they come, and some 3.7% of all compounds hit somewhere here.
